# Assay outcomes (PubChem BioAssay)
# PrP 5UTR inh: inhibition of PrP 5' UTR reporter expression. cell-based PrP 5' UTR mRNA reporter, plate reader. inhibition, % (test concentration not listed). 340,000 compounds, 0.35% hits;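 active = every replicate at 50% or more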;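 note: 0 = median of the neutral control wells; tested in H4 reporter cells; numbers are from one replicate; inactives centre near -14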
# Autofluor counter: compound fluorescence in toxin protease inhibitor counterscreen; AID 624483; compound autofluorescence counterscreen, microsphere flow cytometry; hits give high values; 360,000 compounds, 3.1% hits; fluorescence intensity (no concentration beside the values);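 active = at least 3 SD above the mean of all compounds, about 16000 in these data; inconclusive = too few beads counted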;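 note: 100 nL of 1 mM stock went into each well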
# Sa ugtP lethal: growth inhibition of ugtP-null S. aureus, primary screen, RN4220 ugtP deletion, OD600. 16 h; some inactives read as strong as hits. growth inhibition, % (concentration not given with the values). 330,000 compounds, 0.54% hits. AID 1259309, 2017;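 active = z-score under -3 and OD600 up to 0.15 on both plates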;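 note: plate controls were untreated wells for no effect and antibiotic for full effect; wells of about 80 µL received 100 nL stock; the first replicate is given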
# BJeLR viability: MLPCN primary cell-based screen for lethality selective to Ras in HRASV12 cells. BJeLR (HRASV12) viability, CellTiter-Glo ATP luminescence, 48 h; reference of the scale not given here. inhibition, % (test concentration not listed). 300,000 compounds, 0.17% hits. AID 1554, 2009;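 active = replicate mean above 50%; inconclusive = above 50% but judged a plate artefact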;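 note: 50 nL library stock added to about 25 µL; numbers are from one replicate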
# RN4220 kill: growth inhibition of S. aureus RN4220, primary screen, OD600. 16 h. inhibition, % (concentration not given with the values). 330,000 compounds, 0.33% hits. AID 1259311, 2017;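 active = z-score of -3 or lower and OD600 up to 0.18 on both plates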;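 note: plate controls were untreated cells for no effect and reference antibiotic for full effect; stock transfer was 100 nL into about 80 µL; one replicate is shown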
# Mtb hypoxia inh: PubChem AID 1159583 | M. tuberculosis hypoxia-regulated fluorescent reporter, fluorescence | fluorescence inhibition, % (concentration not given with the values) | 300,000 compounds, 0.1% hits;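 active = 35 to 45% if threefold the growth effect, above 45% if 1.5-fold the growth effect; inactive = the rest, general growth blockers included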;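 note: wells of about 50 µL received 100 nL stock; 0% = vehicle wells and 100% = reference inhibitor wells; whole bacteria with a GFP reporter of the hypoxia response; strong numbers were not always called active; many hits fall short of the cut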
# Mtb hypoxia inh growth: further read-out of Mtb hypoxia inh, marked with its call; growth inhibition, %; measured here: M. tuberculosis growth (absorbance);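 0% = vehicle and 100% = reference antibiotic; read after six days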
# Numbers without * were called inactive; ? = inconclusive; / = no result given. Rows were taken by chance; 3.9% or so of the library scored in one or more.
SMILES,PrP 5UTR inh,Autofluor counter,Sa ugtP lethal,BJeLR viability,RN4220 kill,Mtb hypoxia inh,Mtb hypoxia inh growth
CN=C1SC(CC(=O)Nc2c(C)cccc2C)C(=O)N1N=Cc1cccs1 (stereo not drawn),/,/,1,/,9.0,8,4
C=C(C)C(=O)N1CC2(CC(c3cccc(NC(=O)C=CC)c3)=NO2)CC1C(N)=O (stereo not drawn),/,/,3,/,5.9,11,15
CC(C)c1ccc(CN2CCC(Oc3ccc(C(=O)N4CCCC4)cc3)CC2)cc1,-21,5754,4,2,2.6,16,7
O=C(NC(=S)N1CCOCC1)C12CCC3CC(CC(C3)C1)C2,-49,1985,-6,-5,-1.8,-6,12
CCc1ccc(C(=O)NNc2ccc(F)cc2F)cc1,-16,4833,10,6,-0.3,2,3
O=C(NC1CCCCC1)C(c1ccc2ncccc2c1)N(Cc1ccco1)C(=O)c1ccc2c(c1)OCCO2 (stereo not drawn),-23,10121,-1,-13,-0.3,-18,3
CC1CN(C(=O)CN2C(=O)NC3(CCCC3)C2=O)C(=Nc2cccc(S(=O)(=O)N(C)C)c2)S1 (stereo not drawn),-25,?,5,10,3.7,14,5
COc1ccc(C(=O)Nc2c(N)nc(SCC(=O)NCC3CCCO3)[nH]c2=O)cc1 (stereo not drawn),-9,6102,/,-10,/,/,/
COC(=O)c1ccc2nc(-c3ccc4c(c3)OCO4)cn2c1,39,4467,1,-7,5.6,12,7
COc1ccc(CN2CCN(C(C)C(=O)NC(C)c3ccc(F)cc3)CC2)cc1F (stereo not drawn),-21,6170,3,-2,8.3,-5,1
CCOP(=O)(OCC)C(NC(=O)c1cccc2ccccc12)C(Cl)(Cl)Cl (stereo not drawn),6,2401,-1,4,2.9,7,8
COc1ccc(CNC(=O)/C=C/c2ccc(OCCCF)cc2)cc1,-15,3566,0,1,0.2,/,/
CCN1CCC(=NNC(=O)c2ccc(C)c([N+](=O)[O-])c2)CC1,-32,3115,-2,-7,4.8,/,/
C[C@H](NC(=O)c1ccccc1)C(=O)Nc1nc(-c2ccccn2)cs1,1,3827,1,-19,3.1,-4,13
O=C(c1ccc2nc[nH]c2c1)N1CCN(c2cccc(C(F)(F)F)c2)CC1,-14,4341,-3,-4,1.9,-2,-6
COc1ccc(Cl)cc1NC(=O)CN(C)C(=O)Cn1cnnn1,-19,3499,1,/,-0.5,17,11
C[C@@H](C(=O)O)[C@H]1C[C@]1(C)[C@H](NC(=O)OCc1ccccc1)c1ccccc1,-20,4060,/,-1,/,/,/
CCCC(=O)Nc1c(-c2ccccc2OC)c(=O)c2ccccc2n1C,-26,6431,3,-8,5.7,-7,4
O=C1CCCCC=CCC(CC(=O)N(CCO)Cc2ccccc2)C(=O)NCCO1 (stereo not drawn),/,/,1,/,4.9,16,14
CC(Oc1ccccc1)C(=O)N1CCN=C1SCc1ccccc1 (stereo not drawn),-61,4264,-2,0,8.1,11,2
CCCCNC(=O)c1cc([N+](=O)[O-])[nH]n1,-3,9070,6,-6,5.0,19,16
CS(=O)(=O)N(CC(=O)NCc1ccc2c(c1)OCO2)Cc1ccc(Cl)cc1,-17,2212,5,-5,1.6,/,/
O=C(CN1CCCCC1)NC1CCc2cc3c(cc21)CCC3 (stereo not drawn),0,3178,5,-8,3.8,11,9
CCSc1nnc(C)n1-c1ccc(C(=O)O)cc1,4,2185,-2,-7,-1.1,/,/
COc1ccc2sc(NC(=O)CC(C)C)nc2c1,-74,20332*,-13,3,1.5,7,8
CCOc1ccccc1NC(=O)C(NCC1CCCCC1)c1ccccc1 (stereo not drawn),-52,4316,13,6,0.9,11,-3
COc1ccc(NC(=O)CSCC(=O)N2CCN(C(=O)c3ccco3)CC2)cc1,-22,3689,3,/,1.3,3,2
O=C(CN1C(=O)c2cccc3cccc(c23)C1=O)NCCCO,-25,3887,4,0,1.2,-4,6
CCOC(=O)N1CCN(S(=O)(=O)c2ccc(F)c(C(=O)Nc3cccc(Cl)c3C)c2)CC1,-8,2639,0,0,4.3,2,6
O=C(O)c1nccnc1C(=O)Nc1ccccc1N1CCOCC1,-13,4235,14,-2,3.2,5,-4
O=C(c1cc(-c2ccc(O)cc2)on1)N1CCCCCC1,-54,3886,-1,7,4.9,14,11
O=C(COC(=O)/C=C/c1ccc(OC(F)F)cc1)Nc1cccc(S(=O)(=O)N2CCCC2)c1,-23,5106,9,1,-1.2,2,1
COC(=O)CCN(c1ccccc1)S(=O)(=O)c1ccc(OC)cc1,-21,5849,2,-3,3.2,/,/
O=C(CCC1CCCCC1=O)c1ccccc1 (stereo not drawn),-21,4275,2,-9,0.7,/,/
CN(CC(=O)Nc1cccc(F)c1)C(=O)c1ccc(N2CCOCC2)c([N+](=O)[O-])c1,-22,6616,1,5,2.3,10,-3
COc1ccccc1NC(=O)CN1CCN(S(=O)(=O)c2ccc(Br)cc2)CC1,-32,2939,13,-10,2.1,/,/
Cc1ccc(S(=O)(=O)N(C)C)cc1NC(=O)COC(=O)CCC1CCCC1,-17,?,10,22,1.1,4,3
Cc1cc(NC(=O)C2CC(=O)N(c3cccc(Cl)c3)C2)no1 (stereo not drawn),-9,5105,2,12,0.3,-14,0
CCOC(=O)C(=NNc1ccccc1[N+](=O)[O-])c1csc(Nc2ccccc2)n1,/,/,18,/,-2.9,0,-2
Cc1ccc(C)c(NC(=O)COc2cccc3c2CCN(Cc2ccccc2C)C3=O)c1,-13,2493,-7,-11,0.9,5,5
OCc1nc2ccccc2n1CCCCOc1ccccc1,-27,3586,-1,-13,1.1,16,10
Cn1nc(C(C)(C)C)c([N+](=O)[O-])c1C(=O)N1CCOCC1,-6,6204,3,-6,2.5,11,3
O=C(CSc1nccc(-c2cccs2)n1)Nc1ccc(Cl)cc1,-23,3709,82,-7,0.5,3,0
CC1CCCCC1N1CN=C(Nc2nc3ccccc3s2)NC1 (stereo not drawn),-9,23381*,2,-1,-0.1,4,10
C/C=C(/C)C(=O)O[C@@H]1[C@H](OC(=O)C=C(C)C)c2c(ccc3ccc(=O)oc23)OC1(C)C,-5,3052,/,-7,/,/,/

# Sorted by molecular weight (rising): part of the list above
SMILES,PrP 5UTR inh,Autofluor counter,Sa ugtP lethal,BJeLR viability,RN4220 kill,Mtb hypoxia inh,Mtb hypoxia inh growth
O=C(CCC1CCCCC1=O)c1ccccc1 (stereo not drawn),-21,4275,2,-9,0.7,/,/
O=C(c1cc(-c2ccc(O)cc2)on1)N1CCCCCC1,-54,3886,-1,7,4.9,14,11
Cn1nc(C(C)(C)C)c([N+](=O)[O-])c1C(=O)N1CCOCC1,-6,6204,3,-6,2.5,11,3
Cc1cc(NC(=O)C2CC(=O)N(c3cccc(Cl)c3)C2)no1 (stereo not drawn),-9,5105,2,12,0.3,-14,0
O=C(O)c1nccnc1C(=O)Nc1ccccc1N1CCOCC1,-13,4235,14,-2,3.2,5,-4
CC1CCCCC1N1CN=C(Nc2nc3ccccc3s2)NC1 (stereo not drawn),-9,23381*,2,-1,-0.1,4,10
COC(=O)CCN(c1ccccc1)S(=O)(=O)c1ccc(OC)cc1,-21,5849,2,-3,3.2,/,/
O=C(CSc1nccc(-c2cccs2)n1)Nc1ccc(Cl)cc1,-23,3709,82,-7,0.5,3,0
Cc1ccc(S(=O)(=O)N(C)C)cc1NC(=O)COC(=O)CCC1CCCC1,-17,?,10,22,1.1,4,3
CCOC(=O)C(=NNc1ccccc1[N+](=O)[O-])c1csc(Nc2ccccc2)n1,/,/,18,/,-2.9,0,-2
CN(CC(=O)Nc1cccc(F)c1)C(=O)c1ccc(N2CCOCC2)c([N+](=O)[O-])c1,-22,6616,1,5,2.3,10,-3
Cc1ccc(C)c(NC(=O)COc2cccc3c2CCN(Cc2ccccc2C)C3=O)c1,-13,2493,-7,-11,0.9,5,5
COc1ccccc1NC(=O)CN1CCN(S(=O)(=O)c2ccc(Br)cc2)CC1,-32,2939,13,-10,2.1,/,/
O=C(COC(=O)/C=C/c1ccc(OC(F)F)cc1)Nc1cccc(S(=O)(=O)N2CCCC2)c1,-23,5106,9,1,-1.2,2,1
CCOC(=O)N1CCN(S(=O)(=O)c2ccc(F)c(C(=O)Nc3cccc(Cl)c3C)c2)CC1,-8,2639,0,0,4.3,2,6

# Further compounds:
SMILES,PrP 5UTR inh,Autofluor counter,Sa ugtP lethal,BJeLR viability,RN4220 kill,Mtb hypoxia inh,Mtb hypoxia inh growth
O=C(NC1CCCCC1)C(=S)N1CCOCC1,-6,4594,1,8,3.8,0,10
Cc1nc2c(c(C)nn2-c2ccccc2)c(C)c1CCC(=O)NCCCOC(C)C,-7,3022,7,9,4.7,4,8
CCOC(=O)C1(c2csc(N)n2)COC(=O)C1 (stereo not drawn),0,3347,-4,-15,-1.5,6,1
CCOc1ccccc1OCCCC(=O)Nc1cccc(-n2cnnn2)c1C,1,5235,-9,/,-6.0,-11,1
CNC(=S)NCCc1ccc(OC)c(OC)c1,-10,2174,1,6,2.4,14,1
CC(C)OCCCNC(=O)c1ccc(N(C)S(C)(=O)=O)cc1,-22,9119,8,1,2.8,7,6
Cc1nc2ccc(C(=O)O)cc2c2c1CC(C)S2 (stereo not drawn),-47,2499,10,-2,1.1,/,/
O=C(CC1=NCCNC(c2ccccc2)C1)c1ccccc1O (stereo not drawn),-50,11258,/,-7,/,/,/
CCc1sc(C(=O)N2CCN(CC(=O)Nc3cccc(F)c3)CC2)cc1C,-52,3732,2,/,2.0,12,1
CCN(CC(=O)NCc1ccc(F)cc1)CC(=O)NC1CCCC1,6,3980,3,6,-0.3,-3,6
Cn1c(-c2ccc3c(c2)OCO3)cnc1N,-5,19330*,-2,4,0.6,4,15
COc1cccc(C2=NCCc3cc4c(cc32)OCO4)c1OC,-17,7578,-3,-3,0.4,6,12
Cn1c(C(=O)NCCCN2CCCC2=O)cc2c(=O)n(C)c3ccccc3c21,-24,5280,9,2,-1.2,/,/
COc1cccc(N2CCN(C(=O)c3cc(C)oc3C)CC2)c1,-18,3849,1,/,1.3,8,-1
COc1ccc(CNC(=O)COc2ccc(C)nc2[N+](=O)[O-])cc1,-11,3375,6,3,0.3,6,2
COC(=O)CC1C(=O)NCCN1C(=S)NC(=O)c1sc2ccccc2c1Cl (stereo not drawn),-24,4621,8,6,7.7,3,7
Cc1cc2nc(C3CCN(C(=S)NCCCOC(C)C)CC3)[nH]c2cc1C,-18,4009,-3,-19,4.5,13,4
O=C1Nc2ccc(S(=O)(=O)NCc3ccccn3)c3cccc1c23,-3,4169,3,5,2.8,8,6
Cc1nn(C)c(C)c1CNC(=O)c1cc2n(n1)C(C(F)(F)F)CC(c1cccs1)N2 (stereo not drawn),-15,13405,5,10,6.5,-3,3
CCOC(=O)c1sc(=S)n(-c2ccc(C)cc2)c1SC,-37,5645,25,10,-0.6,1,3
COc1cc(/C=N/NC(=O)c2cc3ccccc3cc2O)ccc1OCCN1CCCCC1,-16,2442,/,-2,/,/,/
CCN(C(=O)CSc1nnc(C)c(=O)[nH]1)c1cccc2ccccc12,-5,3692,3,/,3.1,4,10
CN1CCN(CCOC2c3ccccc3CSc3ccc(Cl)cc32)CC1 (stereo not drawn),-32,10376,2,4,-1.5,9,7
COc1ccccc1N(CC(=O)Nc1ccc(Cc2ccncc2)cc1)S(=O)(=O)c1ccccc1,17,3465,1,5,-1.9,6,4
COc1cc(O)cc2c1cc([N+](=O)[O-])c1c(C(=O)O)cc3c(c12)OCO3,-13,5282,-3,/,1.4,/,/
CN(C)S(=O)(=O)c1ccc(C(=O)OCC(=O)c2ccc3c(c2)NC(=O)CO3)cc1,-7,3371,0,-8,1.9,9,4
Cc1ccc(S(=O)(=O)N2CCN(S(=O)(=O)c3c(C)n[nH]c3C)CC2)cc1C,-14,8090,1,/,1.1,3,4
Cc1nn(CC(=O)NC(=O)NC2CCCCC2C)c(=O)c(C#N)c1C (stereo not drawn),-28,?,12,9,5.8,12,3
O=C1C(Cc2ccc3[nH]ccc3c2)NC(=S)N1c1ccccc1 (stereo not drawn),-16,3399,1,-13,0.8,8,-9
